# Env fusion inh: inhibitors of HIV-1 Env-driven cell-cell fusion, primary screen, HeLa-JRFL effector, CEM21 target cells, luciferase. inhibition, % at 12.3 µM. actives 1.1% (n = 360,000). AID 651610, 2012;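 active = mean replicate inhibition score of at least 50 and every replicate individually at or above 50; inconclusive = only one of the two criteria met; inactive = mean below 50 and not all replicates reaching 50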;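 also: 0% = plate neutral controls and 100% = maraviroc near 300 nM; one replicate is shown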
# CSC inhib: cancer stem cell viability inhibitors, primary screen, luminescence. actives 1.1% (n = 300,000). cancer stem cell-like cells viability. inhibition, % at 7.5 µM;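 active = mean at 75% or more and at least half the replicates too; inconclusive = mean and replicates disagree; tested in HMLE shEcad cells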;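 also: 0% = median of negative and 100% = median of positive control wells; the first replicate is given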
# eIF4H inh: human eIF4H binding inhibitors, primary screen, translation initiation inhibitor project, biochemical, uHTS, fluorescence polarization | eIF4H fluorescence polarization binding assay | actives 0.94% (n = 290,000) | inhibition, % at 35 µM | Eukaryotic translation initiation factor 4H (Homo sapiens), Q15056;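 active = 50% or more with normal probe brightness, or confirmed in later tests; inconclusive = above 50% with abnormal brightness, or retests that disagree; inactive = below 50% or failed in later tests; about a fifth of its hits are not listed in these tables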;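 also: calls also rest on retests at 20 µM and on dose response follow-up; 0% = protein and probe with vehicle and 100% = probe without protein; strong numbers were not always called active; many hits fall short of the cut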
# Yeast UUG start: modulators of yeast start codon fidelity, primary screen, whole organism, S. cerevisiae, single point, plate reader | S. cerevisiae UUG-firefly luciferase reporter, luminescence/redox ratio | activity score, % at 18.7 µM | actives 0.13% (n = 350,000) | AID 602363, 2012;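 active = replicate mean at a twofold rise or more, about +100% in these data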;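 also: firefly luciferase made from a UUG start codon reports start codon fidelity; reporter light over untreated wells divided by growth signal over untreated wells; some hits fall short of that in this replicate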
# MT1-MMP act inh: blockers of MT1-MMP proenzyme processing, primary screen, HT1080 RFP-PRO-GFP cells, GFP/RFP fluorescence. GFP/RFP ratio change, % at 20 µM. actives 0.061% (n = 360,000). GFP/RFP ratio fluorescence, overnight; percent of plate control window, DMSO zero;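 active = GFP/RFP ratio change of at least 30% with cell ATP level not reduced by more than half and red fluorescence within 50% of control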; also: strong numbers were not always called active
#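 Assay system: HT1080 cells carrying an RFP-PRO-GFP reporter | Dosing: Single dose of 20 µM compound, 1% DMSO final | Incubation: Cells overnight before dosing, compound overnight, 37 °C, 5% CO2 | Evaluation: GFP/RFP fluorescence ratio | Control set: DMSO and RFP-L50D-GFP cell wells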
# PABP polyA inh: PABP poly(A) RNA binding inhibitors, primary screen, biochemical, fluorescence polarization, uHTS | inhibition, % at 35 µM | Polyadenylate-binding protein 1 (Homo sapiens), P11940 | actives 1% (n = 290,000);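 active = 50% or more with normal probe brightness, or confirmed in later tests; inconclusive = above 50% with abnormal brightness, or retests that disagree; inactive = below 50% or failed in later tests; about a fifth of its hits are not listed in these tables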;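 also: calls also rest on retests at 20 µM and on dose response follow-up; controls were probe without protein and protein plus probe with vehicle; some compounds called inactive have numbers as strong as hits; many hits fall short of the cut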
# Rce1 inhib: yeast Rce1p protease inhibitors, primary screen, biochemical, fluorescence, cell-free homogeneous; calls only; CAAX prenyl protease 2 (Saccharomyces cerevisiae (strain ATCC 204508 / S288c)), Q03530; actives 0.27% (n = 290,000); yeast membranes, quenched prenylated peptide cleavage fluorescence;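 active = fall in fluorescence gain of 50% or more versus controls, with final raw signal at or below 3038400; inconclusive = same 50% fall but final raw signal above 3038400; inactive = fall in fluorescence gain under 50%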;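 also: plate controls were neutral control wells for no effect and wells lacking membranes for full effect; tested at 10 µM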
# Target sequence (Q03530 whole entry, looked up): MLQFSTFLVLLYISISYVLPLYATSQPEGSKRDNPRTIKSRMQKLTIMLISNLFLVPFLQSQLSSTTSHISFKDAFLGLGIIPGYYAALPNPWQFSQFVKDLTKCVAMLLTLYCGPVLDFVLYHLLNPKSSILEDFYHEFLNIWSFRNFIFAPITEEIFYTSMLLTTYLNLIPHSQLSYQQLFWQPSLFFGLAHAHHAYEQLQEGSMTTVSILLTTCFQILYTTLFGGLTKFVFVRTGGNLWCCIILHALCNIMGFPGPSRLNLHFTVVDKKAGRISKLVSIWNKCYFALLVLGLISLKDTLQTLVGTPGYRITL
# MT1-MMP act inh RFP: further read-out of MT1-MMP act inh, marked with its call; RFP signal change, %; measured here: RFP expression control read;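 0 = vehicle wells; hits needed this value within 50% of zero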
# Starred values were filed as active, the others as inactive; i = inactive; u = inconclusive; x = not tested or not shown.
item	Molecule	Env fusion inh	CSC inhib	eIF4H inh	Yeast UUG start	MT1-MMP act inh	MT1-MMP act inh RFP	PABP polyA inh	Rce1 inhib
1	CC(C)CN1C(=O)C(=O)N(CC(=O)Nc2cccc(Cl)c2Cl)C1=O	-24	-12	x	-3	1	2	x	x
2	CC1(OC(=O)C2CCCC2)C(=O)C=C2C=C(c3ccsc3)OC=C2C1=O (stereo not drawn)	-60	0	40	-19	3	19	33	i
3	COc1ccccc1CNC(=O)C1CC(c2c(Cl)cccc2Cl)=NO1 (stereo not drawn)	22	25	-15	1	2	3	-6	i
4	CC(C)(O)C#Cc1ccc(C(=O)NCc2ccccc2F)cc1	-7	-6	10	x	3	-2	-8	i
5	COc1ccccc1CNC(=O)C1CCCN1S(=O)(=O)c1ccc2c(c1)C(C)(C)C(=O)N2C (stereo not drawn)	-15	x	x	-10	1	1	x	x
6	CC(C)c1ccc(NC2CCCN(C(=O)CCN3CCOCC3)C2)cc1 (stereo not drawn)	10	8	4	0	0	1	3	i
7	COc1ccccc1N1CCN(C(=O)CCc2ccccc2)CC1	-1	-21	-3	0	2	-4	18	i
8	CC1(C(=O)NS(=O)(=O)c2ccccc2Cl)CCN1C(=O)Cc1ccccc1 (stereo not drawn)	-24	x	x	-5	4	10	x	x
9	CCN(CC)CCNC(=O)C12CC3CC(CC(C3)C1)C2	x	-2	-12	-13	1	5	1	i
10	CCN(CC(=O)Nc1ccc2c(c1)OCO2)Cc1nc2ccccc2c(=O)[nH]1	-15	-12	4	x	-6	-5	2	i
11	Cc1cc(OC(=O)C(C)(C)C)c([N+](=O)[O-])c(=O)[nH]1	-7	0	1	x	0	-2	-8	x
12	COc1ccc([C@@H]2[C@H]3C(=O)N(c4cccc(C(F)(F)F)c4)C(=O)[C@H]3ON2C)cc1	12	x	2	-3	2	0	1	i
13	COc1ccc(/C(O)=C2/C(=O)C(=O)N(CCN3CCOCC3)C2c2ccccn2)cc1OC (stereo not drawn)	x	15	-1	-20	3	0	3	i
14	CC(=O)c1ccc(NC(=O)CN2CCC(NC(=O)c3ccccc3C)CC2)cc1	-8	x	x	-9	1	2	x	x
15	O=C(CSc1nnnn1-c1ccccc1)NCC1(N2CCCCC2)CCCCC1	13	-16	x	-13	0	0	x	x
16	Nc1cccc(-c2cccc3nncn23)c1	-23	x	x	-25	-5	1	x	x
17	COC(=O)c1cccc(NS(C)(=O)=O)c1	-6	-9	-9	x	2	6	3	i
18	Cc1c(C)c2ccc(O)c(CN3CCCC3)c2oc1=O	4	-12	0	-2	1	1	10	u
19	COc1ccc(Sc2cc(C(F)(F)F)nc(-c3ccccn3)n2)cc1	8	-10	7	-33	-4	-5	-3	i
20	CS(=O)(=O)Nc1ccccc1NS(C)(=O)=O	-3	-8	1	-4	-2	-1	4	i
21	CC(Sc1nc2ncc(Cl)cc2[nH]1)C(=O)NC1(C#N)CCCCC1 (stereo not drawn)	-13	x	x	5	8	-3	x	x
22	CCCCOc1ccc(C(=O)NC(=S)Nc2ccc(CN3CCOCC3)cc2)cc1	-5	6	0	-10	3	1	16	i
23	Cc1cc(C)n2nc(C(=O)N/N=C/c3cn(C)nc3C)nc2n1	1	-3	-3	-24	-1	4	-8	i
24	Nc1nc(COC(=O)c2ccco2)nc(Nc2ccccc2)n1	-17	x	x	-28	6	5	x	x
25	COc1ccccc1N1CCN(Cc2cccs2)CC1	-21	5	-2	-19	-5	-7	22	i
26	O=C1C=C(c2cccc(Br)c2)C[C@@H](c2ccc(F)cc2)C1	-40	42	x	-20	1	-1	x	x
27	O=C(CCNC(=O)C1CCN(S(=O)(=O)c2ccccc2)CC1)NCc1cccnc1	-13	x	x	5	4	3	x	x
28	Cc1cc(C)cc(N(CC(=O)Nc2ccc(-c3nc4ccc(C)cc4s3)cc2)S(C)(=O)=O)c1	-48	19	-9	-31	-3	-7	-2	i
29	CCc1c(C(=O)N2CCN(c3ccccc3F)CC2)[nH]c(C)c1C(C)=O	2	5	-3	-9	2	-3	-6	i
30	COc1cc(OC)cc(C(=O)Nc2c(F)cccc2F)c1	4	-5	14	-15	2	5	12	i
31	CCC(C)Sc1cc(C(F)(F)F)c(C(=O)Nc2ccc(Cl)cc2)cn1 (stereo not drawn)	-8	37	-4	-12	1	-1	-5	i
32	C=CCNC(=O)CC1Nc2c3ccccc3nc(=S)n2C1=O (stereo not drawn)	-14	0	1	-12	3	5	-17	i
33	N/C(Cc1ccc(Cl)cc1)=N\OC(=O)Cc1ccc([N+](=O)[O-])cc1	-5	44	3	-12	-6	-6	-5	i
34	CCCN1CCC(=NNc2ccc(S(=O)(=O)N(CC)CC)cc2[N+](=O)[O-])CC1	-24	48	-3	x	-6	-13	-10	i
35	Cc1ccc(C(=O)NNC(=O)c2ccc3ccccc3c2)cc1	-103	x	x	-11	5	-3	x	x
36	Cc1ccc(CS(=O)Cc2ccc(C(=O)N3CCN(c4ccccn4)CC3)o2)cc1 (stereo not drawn)	-9	-12	-12	-5	3	-2	-2	i
37	Oc1cccc2ccc(N3CCOCC3)nc12	-2	-5	-5	18	3	2	-1	i
38	C=CCc1cccc(CNc2c(C)n(C)n(-c3ccccc3)c2=O)c1O	u	-8	-3	-18	-2	-1	-6	i
39	CC1=CC(C)(C)n2c(O)c(N=N)c3c(C)c(C)cc1c32	-61	4	-7	x	-2	-8	-3	i
40	CC[C@]12c3[nH]c4ccccc4c3CCN1C(=O)C(CC(=O)NCc1ccco1)C[C@@H]2C(=O)N1CCN(C(=O)C2CC2)CC1 (stereo partly drawn)	-85	-14	x	11	-1	1	x	x
41	CC(OC(=O)CNS(=O)(=O)c1ccc2ccccc2c1)C(=O)N(C)c1ccccc1 (stereo not drawn)	x	-3	4	9	-1	0	2	i
42	COc1cc2cc(C(=O)N3CCc4ccccc4C3)[nH]c2cc1OC	-2	3	-2	-19	1	2	-4	i
43	CCN(CC)c1nc(C=Cc2ccc(N(C)C)cc2)c2nccnc2n1	2	x	x	-21	-23	52	x	x
44	CN(C)C(CNC(=O)CSC(=S)N1CCCC1)c1ccccc1 (stereo not drawn)	-26	x	x	7	-2	4	x	x
45	CC(C)C(O)(CC#CCN1CCCC1)c1ccccc1 (stereo not drawn)	7	-11	-5	x	-7	-5	3	i
46	Cc1ccc(CNC(=O)CCNC(=O)c2ccco2)cc1	x	-4	-10	-7	1	9	4	i
47	Cc1ccc(N(CC(=O)Nc2ccc(C)cc2C)S(=O)(=O)N2CCCC2)cc1	14	6	6	-1	4	-1	3	i
48	COc1cccc(C(=O)COC(=O)c2cccs2)c1	-14	3	-9	-68	-2	-5	16	i
49	C#CCOCCOCCOCCNc1nc(N2CCN(C(=O)[C@H](CCCCN)n3cc(CN)nn3)CC2)nc(N2CCN(C(=O)[C@H](CCCCN)n3cc([C@@H](N)CC(N)=O)nn3)CC2)n1	-6	x	x	84	1	4	x	x
50	COc1ccc(S(=O)(=O)N2CCC(C(=O)NCc3ccccc3)CC2)cc1OC	15	6	5	x	1	3	-2	i
51	Cc1ccccc1Nc1nnc(SCc2cc(=O)n3ccsc3n2)s1	25	-12	5	0	-6	-2	5	i
52	CCNS(=O)(=O)c1ccc(C(=O)OCc2cc(=O)oc3cc(OC)ccc23)cc1	15	-10	20	4	1	0	10	i
53	COc1ccc(C(=O)CSc2n[nH]c(N)n2)cc1	10	-18	-8	-22	-2	1	3	i
54	CC(C)N(Cc1nccn1C)C(=O)c1cc(COc2ccc(F)cc2Cl)on1	-25	3	-6	-2	-3	1	-1	i
55	CCCCc1ccc(NC(=S)NCc2cccs2)cc1	-2	14	5	x	3	-3	3	i
56	CC(=O)Nc1ccc(NC(=O)C(C)OC(=O)CNS(=O)(=O)c2ccc(Br)cc2Cl)cc1 (stereo not drawn)	-14	1	-11	-20	-4	0	-10	i

# Further records follow:
item	Molecule	Env fusion inh	CSC inhib	eIF4H inh	Yeast UUG start	MT1-MMP act inh	MT1-MMP act inh RFP	PABP polyA inh	Rce1 inhib
57	CCC(C)Nc1nc(-c2c[nH]c3ccccc23)cs1 (stereo not drawn)	1	-4	0	-4	9	19	18	i
58	CCOc1ccc(C(=O)/C=C/c2cc(OC)c(OC)c(OC)c2)cc1	-6	48	-8	-10	-6	-13	4	i
59	Cc1ccc(-c2nc3ncccc3o2)cc1NC(=O)c1ccccc1	2	-8	6	x	3	-2	3	i
60	Cc1c([N+](=O)[O-])c2ccc(O)cc2n1-c1ccccc1	29	-11	-7	-24	-16	-16	-10	i
61	CC(=N\O)/C(CN(C)C)=N/O	x	-1	-2	0	-2	1	1	i
62	CCc1c(O)nc(N2CCN(Cc3ccccc3)CC2)[nH]c1=O	11	-11	-8	-4	6	3	5	i
63	COc1cc(C(=O)NC(c2ccccc2)c2ccccc2)cc(OC)c1C	x	-9	5	20	-2	0	-11	i
64	CC(C)Nc1nc(Oc2ccc(=O)n(-c3ccccc3)n2)nc(N(C)C)n1	14	-3	-6	x	2	1	-12	i
65	CC(=O)Nc1cccc(-c2ccnc3c2CC(C)(C(=O)Nc2cccc(C(F)(F)F)c2)O3)c1 (stereo not drawn)	-2	x	x	13	-2	-4	x	x
66	Cc1c(NC(=O)CN2C(=O)C(=O)N(Cc3ccccc3)C2=O)c(=O)n(-c2ccccc2)n1C	-20	-5	2	-27	0	0	-2	i
67	COc1ccc(C(C)=O)cc1COC(=O)CNC(=O)c1cc(C)cc(C)c1	0	-10	8	x	0	2	7	i
68	O=C(N/N=C/c1cc2c(cc1Cl)OCO2)c1cc(-c2ccccc2)n[nH]1	-37	25	-7	-11	3	2	24	i
69	Cn1c(Oc2ccc(Cl)cc2)c(C=O)c2ccccc21	x	14	-7	x	-9	-14	2	i
70	CC(=O)Oc1ccccc1/C=C1\CCOC1=O	x	-14	-4	-17	-2	4	-1	i
71	Cc1c(C(=O)Nc2cccnc2Cl)oc2ccccc12	-52	-3	-2	-12	0	1	2	i
72	COc1ccc(CCNC(=O)CCNC(=O)c2ccco2)cc1OC	-17	-1	-10	-13	-3	2	5	i
73	Cc1ccc(C)c(-c2nnc(NC(=O)CS(=O)(=O)c3ccccc3)o2)c1	0	x	x	x	-4	-4	x	i
74	CCOc1ccc(/C=N/N2C(=O)C(CC(=O)Nc3ccc(F)cc3F)SC2=NC)cc1OC (stereo not drawn)	-3	-2	10	-5	-1	-1	-2	i
75	O=C(NCC1CCCO1)C1CCN(C2CCN(C(=O)Cc3ccsc3)CC2)CC1 (stereo not drawn)	-7	-7	6	-11	1	4	-2	i
76	O=C(NCc1ccco1)/C(=C/c1cccnc1)NC(=O)c1ccco1	-103	-7	-6	22	0	4	5	i
77	O=C(Cn1c(=O)oc2cc(S(=O)(=O)NCc3ccccc3)ccc21)NCc1ccco1	6	-2	0	1	2	-8	6	i
78	O=C(CC1C(=O)NCCN1C(=S)Nc1ccccc1)Nc1ccc2c(c1)OCCO2 (stereo not drawn)	x	x	0	-21	-3	1	2	i

# Not all compounds are listed, so the mix of outcomes need not match the whole.
